VDR inhibitor – vitamin D3 receptor (human) inhibition | P11473 | hit rate 0.93% among 400,000 | VDR-SRC2-3 peptide fluorescence polarization, 2 h | Potency, µM, without a hit: max response, negative = inhibition, most hits filed as inhibitors | AID 504847; active means well fitted inhibition curve with a large enough effect; inconclusive means small, poorly fitted or top-dose-only effect, or another doubt; inactive means no such curve, though single readings can be large or run the other way; further: series mostly up to about 120 µM
Target sequence (P11473 whole entry, looked up): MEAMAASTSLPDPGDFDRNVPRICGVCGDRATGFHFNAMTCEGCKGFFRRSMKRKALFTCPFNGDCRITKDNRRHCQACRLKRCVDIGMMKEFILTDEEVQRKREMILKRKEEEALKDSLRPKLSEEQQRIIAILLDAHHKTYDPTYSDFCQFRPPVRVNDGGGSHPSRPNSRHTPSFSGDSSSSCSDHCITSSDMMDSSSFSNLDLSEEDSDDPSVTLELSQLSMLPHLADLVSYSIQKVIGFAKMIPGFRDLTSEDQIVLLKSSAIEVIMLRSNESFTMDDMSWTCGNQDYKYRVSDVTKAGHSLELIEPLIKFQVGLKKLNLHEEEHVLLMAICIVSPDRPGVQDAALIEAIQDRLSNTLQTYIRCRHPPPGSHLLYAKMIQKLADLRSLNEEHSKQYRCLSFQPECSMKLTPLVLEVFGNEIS
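Reagent solutions, kept cold and dark, are dispensed first; compounds are then pinned in at 23 nl, plates briefly spun, and incubated 2 h at ambient temperature. Inhibition of VDR–SRC2-3 peptide binding is read by fluorescence polarization.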
* = called active by the depositor; u = inconclusive; & = joins results of further samples. On the % scale 0 is the no-effect control and ±100 the full control effect; potency means the concentration at half of the fitted maximal effect. Not all compounds are listed, so the mix of outcomes need not match the whole.

entry	molecule	VDR inhibitor
1	CC(CCc1ccccc1)NC(=O)CCNS(=O)(=O)c1ccccc1 (stereo not given)	8%
2	O=C(N/N=C/c1cc2ccccc2nc1Cl)[C@H]1C[C@@H]1c1ccccc1	2%
3	CCOc1c2ccc(C(=O)NCc3cc(C(F)(F)F)cc(C(F)(F)F)c3)cc2nn1C	-13%
4	Nc1nc(-c2ccc(Br)s2)c(Br)s1	-9%
5	CC(=O)c1sc(NC(=O)CCS(=O)(=O)c2ccccc2)nc1C	23%
6	Cc1ccc(C(=O)Oc2ccc3c(c2)ncn3C)cc1	6%
7	Cc1csc(C2=C(O)CN(CCc3ccccc3)C2=N)n1	-39%
8	CCOC(=O)N1CCN(C(=O)COC(=O)CSc2cc(C)c(Br)cc2C)CC1	-4%
9	ClC1(Cl)CC1CSc1nc2ccccc2[nH]1 (stereo not given)	-12%
10	CCc1cccc(C)c1NC(=O)C1CC(=O)N(C2CCCC2)C1 (stereo not given)	-3%
11	Cc1nc2nc(CCNS(=O)(=O)c3ccc(Cl)cc3)cn2nc1C	89µM*
12	CCc1c(O)nc(SCC(=O)NC(C)(C)C)n(-c2ccccc2)c1=O	-9%
13	O=C(NN1C(=O)C2C3C=CC(C3)[C@H]2C1=O)c1cccnc1 (stereo not given in full)	0%
14	COCCN(CC1CCCN(C2Cc3ccccc3C2)C1)C(=O)c1cccs1 (stereo not given)	0%
15	C=C(C)C(=O)Nc1cccc(C2=NOC3(C2)C[C@H](C(N)=O)N(C(=O)C(c2ccccc2)c2ccccc2)C3)c1 (stereo not given in full)	-8%
16	CC(=O)Nc1ccc(Oc2ccc(S(=O)(=O)N3CCCC3)cn2)cc1	-9%
17	Cc1nnc(SCc2nnc(-c3ccccc3Br)o2)s1	-8%
18	CC(C)N(C(=O)CSc1nn2c(=O)c(C(C)(C)C)nnc2s1)c1ccccc1	11%
19	CCNC(=O)COc1cc(C)c(Br)c(C)c1	-5%
20	COc1ccc(NC(=S)N2CCN(C(c3ccccc3)c3ccccc3)CC2)c(OC)c1	1%
21	Cc1nn(C)c(Oc2ccc(Cl)cc2)c1C=O	-14%
22	Cn1c(C(=O)N2CCN(Cc3ccccc3)CC2)cc2c(=O)n(C)c3ccccc3c21	-7%
23	CCOc1ccc(N2CC(C(=O)Nc3cccc(S(=O)(=O)N4CCCCC4)c3)CC2=O)cc1 (stereo not given)	10%
24	Cc1cc(NCc2ccccc2Cl)n2nnnc2n1	2%
25	CC(=O)OC1CC[C@]2(C)C(=CCC3C4CCC(C(C)CCCC(C)C)[C@]4(C)CCC32)C1 (stereo not given in full)	0%
26	CCCSc1ccc([C@@H]2[C@@H]3C(=O)N(CC)C(=O)[C@@H]3[C@]3(C(=O)OC)CCCCN23)cc1	8%
27	CN1C(=O)/C(=C/C=C2\SCCN2C)N(C)C1=S	14%
28	Cc1ccc2c(c1)c1nnc(SCC(=O)Nc3cccc(Cl)c3C)nc1n2CC(=O)O	2%
29	CCC(=O)N(Cc1cc2c(C)cc(C)cc2[nH]c1=O)C1CCCCC1	4%
30	COc1ccc2cc[nH]c2c1	u
31	COc1ccc(-c2noc(-c3ccc(NC4CCCC4)c([N+](=O)[O-])c3)n2)cc1	7%
32	CCOc1cc(N2CCOCC2)c(OCC)cc1NC(=O)CN1CCN(Cc2ccc3c(c2)OCO3)CC1	-2%
33	Cc1ccsc1C(C(=O)NCc1ccccc1)N(C(=O)c1csnn1)c1ccccc1 (stereo not given)	1%
34	Clc1ccc(Nc2nc(NCCN3CCOCC3)nc(N3CCOCC3)n2)cc1	-1%
35	COC(=O)c1ccc(C(=O)OC)c(NC(=O)c2cc3nc(-c4ccc(C)cc4)cc(C(F)(F)F)n3n2)c1	-3%
36	CCOC(=O)c1cnc2oc3ccccc3n2c1=O	-14%
37	CN1CCN(NC(=O)/C=C/c2cccc([N+](=O)[O-])c2)CC1	8%
38	Cc1cc(=O)[nH]c(=S)[nH]1	-3%&8%
39	Cc1cc(C)nc(-n2ncc3c2CC(C)CC3=O)n1 (stereo not given)	-6%
40	Cc1ccc(S(=O)(=O)NCC(=O)OCc2csc(-c3ccccc3)n2)cc1	-4%
41	CCc1nnc(NC(=O)CSc2nccn2Cc2ccc(F)cc2)s1	8%
42	COc1cccc(OCc2nn[nH]n2)c1	-10%
43	Cc1cc2c(cc1S(=O)(=O)Nc1cccc(C)c1C)n(C)c(=O)c(=O)n2C	-19%
44	CC(C)C(NC(=O)c1ccc(Br)cc1)C(=O)NC1=NCCS1 (stereo not given)	-13%
45	CC1CCN(c2nc3c(c(=O)[nH]c(=O)n3C)n2Cc2ccccc2Cl)CC1	-2%
46	Cc1ccc(S(=O)(=O)Nc2c(C)ccc3nsnc23)cc1	-11%
47	O=C(NC1CCCC1)C(c1ccncc1)N(Cc1ccccc1)C(=O)Cc1cccs1 (stereo not given)	4%
48	COc1cccc2cc(C(C)N(CCCN3CCOCC3)C(=S)Nc3ccc(C)cc3)oc12 (stereo not given)	9%
49	COc1ccc(C(=O)OCC(=O)c2cc(C)n(CC3CCCO3)c2C)cc1[N+](=O)[O-] (stereo not given)	-1%
50	COc1ccc(C(=O)N2CCN(c3ccccc3)CC2)cc1S(=O)(=O)NC1CC1	-5%

(list continues)
entry	molecule	VDR inhibitor
51	COc1ccc(Cl)cc1N(CC(=O)NC1CC2CCC1C2)S(=O)(=O)c1ccccc1 (stereo not given)	u
52	Oc1[nH]c2ccccc2c1OCc1ccncc1	10%
53	COC(=O)c1ccc(C)c(NC(=O)c2ccc(CN3CCc4ccccc4C3)cc2)c1	-8%
54	N#CCC(=O)Nc1ccc(C(=O)OCC(=O)NC(=O)NCc2ccco2)cc1	-13%
55	COc1ccc(/C=N/n2c(COc3ccccc3)n[nH]c2=S)cc1OC	-6%
56	Cc1cccc(Nc2nnc(SCC(=O)Nc3ncc(C(F)(F)F)cc3Cl)s2)c1C	u
57	COC(=O)C1=C(C)N(CCCC(=O)O)C(=O)NC1c1cccc(OC)c1 (stereo not given)	-10%
58	CCn1c(CCCNC(=O)c2cccs2)nc2ccccc21	6%
59	CC(=O)Cc1nsc(NC(=O)c2cccs2)n1	18%
60	CC(=O)c1ccc(C(=O)N2CCCC(Nc3ccccc3)C2)s1 (stereo not given)	16%
61	Cc1ccc(SCC(=O)N(C)CC(=O)Nc2cccc(F)c2)c(C)c1	7%
62	CCn1c(COc2ccc3c(c2)CCCC3)nnc1SCC(=O)Nc1nccs1	-16%
63	Cc1cc2oc(C(=O)NCc3ccncc3)c(C)c2cc1C	-7%
64	CCCCCCc1cc2cc(-c3nnc(-c4ccccc4OC)o3)c(=O)oc2cc1O	0%
65	N#Cc1ccc(OCC(=O)Nc2cc(S(=O)(=O)N3CCOCC3)ccc2N2CCOCC2)cc1	0%
66	COc1ccc(N(C(=O)c2ccncc2)S(=O)(=O)c2ccccc2)cc1	-21%
67	O=C(O)c1c(F)c(F)cc2ccccc12	-10%
68	O=c1c2ccccc2nc2sc(Nc3ccc(F)cc3)nn12	-21%
69	C/C(=N\Nc1nc(-c2ccccn2)nc2ccccc12)c1ccc(F)cc1	-21%
70	O=C(CCc1ccccc1)NC(NC(=S)Nc1ccc(Cl)cc1)C(Cl)(Cl)Cl (stereo not given)	0%
71	COc1cc(OC)cc(C(=O)Nc2ccccc2-c2nc3ccccc3s2)c1	3%
72	COc1cc(OC)cc(C(=O)Nc2ccc3nc(Nc4cccc(C(F)(F)F)c4)cc(C)c3c2)c1	16%
73	O=C(Cn1cnc2c(cnn2-c2ccccc2Cl)c1=O)N1CCc2ccccc21	5%
74	O=S(=O)(NCc1ccc(Cl)cc1)NCc1ccc(Cl)cc1	-7%
75	CCN1C[C@@H]2[C@@H]3C(=O)N(C)C(=O)[C@@H]3[C@](CC)(C1=O)N2C(=O)c1ccccc1	8%
76	Cc1cc(C)c(C(=O)c2ccc(C(=O)N3CCCCC3)cc2)c(C)c1	-7%
77	COc1cccc2cc(-c3cn4ccc(C)cc4n3)c(=O)oc12	21%
78	CCC(CC)c1nnc(NC(=O)[C@@H](NC(=O)c2cccc(C)c2)C(C)C)s1	-1%
79	O=C(OCc1ccccc1F)c1ccc2c(c1)OCCO2	-9%
80	NS(=O)(=O)c1cccc(NS(=O)(=O)c2ccc(/C=C/C(=O)OCC(=O)c3ccccc3)cc2)c1	26%

From entry 72 up to 78, copied from above:
entry	molecule	VDR inhibitor
72	COc1cc(OC)cc(C(=O)Nc2ccc3nc(Nc4cccc(C(F)(F)F)c4)cc(C)c3c2)c1	16%
73	O=C(Cn1cnc2c(cnn2-c2ccccc2Cl)c1=O)N1CCc2ccccc21	5%
74	O=S(=O)(NCc1ccc(Cl)cc1)NCc1ccc(Cl)cc1	-7%
75	CCN1C[C@@H]2[C@@H]3C(=O)N(C)C(=O)[C@@H]3[C@](CC)(C1=O)N2C(=O)c1ccccc1	8%
76	Cc1cc(C)c(C(=O)c2ccc(C(=O)N3CCCCC3)cc2)c(C)c1	-7%
77	COc1cccc2cc(-c3cn4ccc(C)cc4n3)c(=O)oc12	21%
78	CCC(CC)c1nnc(NC(=O)[C@@H](NC(=O)c2cccc(C)c2)C(C)C)s1	-1%

Next section:
entry	molecule	VDR inhibitor
81	Cc1ccc(C(=O)N/C(=C/c2ccco2)C(=O)O)cc1	-1%
82	COc1ccccc1NC(=O)N1CCN(c2ccc(F)cc2)CC1	10%
83	O=S(=O)(Nc1cccc(C(F)(F)F)c1)c1cccnc1	-26%
84	Clc1ccc(-c2ccc(CN3CCCCC3)o2)cc1	-20%
85	Cc1cc(OC(=O)c2ccc(C)c(C)c2)c([N+](=O)[O-])c(=O)[nH]1	-22%
86	Cc1cc(OC(=O)c2ccco2)c(Sc2ccccc2[N+](=O)[O-])c(=O)o1	u
87	Cc1cccc(N2CCN(C(=O)C3CCN(S(=O)(=O)c4cccnc4)CC3)CC2)c1C	-23%
88	COc1ccc(NC(C)=O)cc1NC(=O)CSc1nc2ncccc2[nH]1	-24%
89	Cn1c(Cn2cnc3ccccc32)nnc1SCC(=O)CC(=O)Nc1ccccc1	6%
90	CCc1ccc2oc(C(=O)Nc3c(C)n(C)n(-c4ccccc4)c3=O)cc(=O)c2c1	4%
91	CCO[C@@H]1OC(C(=O)NC2CC2)=C[C@H](C)[C@H]1CCCO	u
92	CN1C(=O)C(C)(C)c2cc(S(=O)(=O)NCc3ccc(Cl)cc3)ccc21	-10%
93	Cc1ccc(NC(=O)OC(C)N2CCCCC2)cc1NC(=O)OC(C)N1CCCCC1 (stereo not given)	10%
94	Cc1csc(NC(=O)C2CCCN2C(=O)OCC(C)C)n1 (stereo not given)	-1%
95	C/C(CC(=O)Nc1ccc(N(C)C)cc1)=N\NC(=O)c1ccccc1F	-9%
96	O=S(=O)(Cc1cc(Cl)nc(-c2ccncc2)n1)c1ccccc1	15%
97	COc1ccc(-c2ccc(=O)n(CC(=O)Nc3ccc(C(=O)NC4CC4)cc3)n2)cc1OC	6%
98	O=C(c1ccccc1)N1CCN(c2ccccc2F)CC1	8%
99	Cc1cc(Br)ccc1NS(=O)(=O)c1c(C)[nH]c(=O)[nH]c1=O	-25%
100	O=C(COc1ccccc1)NCc1ccc(-n2cccc2)cc1	-1%
101	COc1ccc(NC(=O)CN2C(=O)NC3(CCCCCCC3)C2=O)cc1	-9%
102	COC(=O)c1ccccc1S(=O)(=O)N1CCC(C(=O)NCC2CCCO2)CC1 (stereo not given)	-13%
103	CCOC(=O)c1cc(CC)sc1N1C(=O)CC(Sc2ncccc2C(=O)O)C1=O (stereo not given)	-14%
104	O=C(O)C(Cc1ccccc1)N1C(=O)c2c(Cl)c(Cl)c(Cl)c(Cl)c2C1=O (stereo not given)	-18%
105	COc1cccc(NC(=O)CN2C(=O)CSc3ccc(S(=O)(=O)N4CCOCC4)cc32)c1	-15%
106	CCOCCn1ccc2c(OCC(=O)Nc3ccc(OC)cc3OC)cccc2c1=O	-16%
107	CCc1nnc(NC(=O)CCc2ccc(C)o2)s1	-3%
108	CCN1CCN(c2cc(=O)n(C3CCCCC3)c(=O)[nH]2)CC1	-12%
109	O=C1[C@@H]2Cc3c([nH]c4ccccc34)C(c3ccccc3)N2C(=O)CN1CCO (stereo not given in full)	25%
110	C[C@H](CO)N1C[C@H](C)[C@@H](CN(C)S(C)(=O)=O)Oc2ccc(NC(=O)CCN3CCOCC3)cc2C1=O	13%

2 records drawn at random from the list so far, as already listed:
entry	molecule	VDR inhibitor
109	O=C1[C@@H]2Cc3c([nH]c4ccccc34)C(c3ccccc3)N2C(=O)CN1CCO (stereo not given in full)	25%
105	COc1cccc(NC(=O)CN2C(=O)CSc3ccc(S(=O)(=O)N4CCOCC4)cc32)c1	-15%

Other entries follow.
entry	molecule	VDR inhibitor
111	O=C(c1ccc2c(c1)N(Cc1cccc(Cl)c1)C(=O)c1ccccc1S2(=O)=O)N1CCN(c2ccccn2)CC1	-2%
112	c1cncc(CNc2ncnc3ccc(-c4cccnc4)cc23)c1	-19%&0%
113	O=C(Nc1cccc(F)c1)N1CC=C(c2ccc(Cl)cc2)CC1	-13%
114	Cn1cnc2c1c(=O)n(Cc1cccc(Br)c1)c(=O)n2C	-1%
115	CC(=O)c1ccc(S(=O)(=O)NCCC(=O)OCC(=O)N2CCCC2=O)cc1	-8%
116	CC1=CC(=O)C2=C(C)C[C@H](OC(=O)Cc3ccccc3)C3[C@H](OC(=O)[C@H]3C)C12 (stereo not given in full)	-1%
117	CCOC(=O)c1cnc2c(Cl)cccc2c1NCCCN1CCOCC1	11%
118	CSc1cccc(NC(=S)N2CCC(c3ccccc3)C2)c1 (stereo not given)	-4%
119	O=C(c1c[nH]c2ccc(F)cc2c1=O)N1CCCCCC1	-3%
120	Cc1ccccc1NC(=O)NNC(=O)c1ccc2ccccc2c1O	-23%
121	CN(CC(=O)Nc1c(Cl)cccc1Cl)C(=O)CC1OC(=O)c2ccccc21 (stereo not given)	5%
122	CCOC(=O)c1ccc(CN(Cc2ccccc2C)S(=O)(=O)c2ccc(F)c(C(=O)Nc3cccc(OC)c3)c2)cc1	4%
123	CN(C)CCC(O)(c1ccccc1)c1ccccc1	2%

Screening data as filed in PubChem.
